High-throughput results: PubChem, National Center for Advancing Translational Sciences (NCATS)
PK Bst – modulators of Bacillus stearothermophilus pyruvate kinase | partly purified Bacillus stearothermophilus pyruvate kinase, luminescence ATP production; ribose 5-phosphate activator present at AC10 | Potency, µM | 51,000 compounds, 1.2% hits; in the data active means potency below about 11 µM; inconclusive means mostly about 12 µM to 25 µM; inactive means weaker than that;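 the screen sought inhibitors and activators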;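 also: potency is read from the fitted curve at half-maximal effect; scaled between full activation by ribose 5 phosphate and full inhibition by luteolin; about four in five hits inhibit and the cells do not say which; series up to 57 µM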
YjeE inh – displaces an ADP probe from E. coli YjeE (TsaE) | purified YjeE, fluorescence polarisation of a bound ADP probe | Potency, µM | 71,000 compounds, 0.05% hits; active = well fitted falling curve; inconclusive = weaker or top-dose-only fall, or a rising curve; inactive = flat or poorly fitted curve;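 also: top concentration of the series not given in the record; excess ADP was the control for the full effect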
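Purified YjeE (10 uM) with BODIPY Texas Red-labeled ADP probe (2 uM); compounds pin-transferred, 15 min at room temperature. Binding inhibition read as decreased fluorescence polarization; ADP titration as control.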
* marks the source's active call; other numbers are inactive results; i = inactive; ? = inconclusive; . = no result given. Only part of the results is shown; rates above refer to the full screens.

Molecule | PK Bst | YjeE inh
CCCNC(=O)CS(=O)Cc1nc(-c2ccc(OC)cc2)oc1C (centres undefined) | . | i
CCc1nc(NCCCn2ccnc2)c2oc3ccccc3c2n1 | >57 | i
CCOC(=O)/C(C#N)=C1\Nc2ccccc2N=C1N(CC(C)C)CC(C)C | >11 | .
CCOc1ccccc1Nc1nc(N)nc(CN(C)C2CCCCC2)n1 | >57 | i
CN1CCN(c2ncc3nc(CCc4ccccc4)c(=O)n(Cc4ccc(F)cc4)c3n2)CC1 | . | i
CCN(CC)S(=O)(=O)c1cccc(C(=O)Nc2nc3cc4c(cc3s2)OCCO4)c1 | >11 | i
Cn1c(=O)n(Cc2ccccc2F)c2ccccc21 | >57 | i
Cc1cc(C)cc(Nc2cc(=O)n(C3CCCCC3)c(=O)[nH]2)c1 | >57 | i
O=C(CCn1c(=O)c2ccccc2n(CC(=O)NCCC2=CCCCC2)c1=O)NCc1ccco1 | >57 | i
O=C(NCc1ccco1)c1noc2c1CCCCC2 | >57 | i
Cn1nnnc1SCC(=O)NC(=O)NCc1ccccc1 | >57 | i
CCOC(=O)N1CCC(NC(=O)c2csc3c2CCCC3)CC1 | . | i

Single records, as listed above. Screens in order: PK Bst | YjeE inh
Shown for CCCNC(=O)CS(=O)Cc1nc(-c2ccc(OC)cc2)oc1C (centres undefined) = . | i
Shown for CCc1nc(NCCCn2ccnc2)c2oc3ccccc3c2n1 = >57 | i
Shown for Cn1c(=O)n(Cc2ccccc2F)c2ccccc21 = >57 | i

Further records.
Molecule | PK Bst | YjeE inh
CC1=C(C(=O)Nc2cccc(C)n2)C(c2ccc3c(c2)OCO3)C2=C(CC(c3ccco3)CC2=O)N1 (centres undefined) | . | i
O=C(c1ccco1)N(Cc1cc2ccccc2[nH]c1=O)C1CCCCC1 | >57 | i
CCOCCOC(=O)C1=C(C)Nc2ccc(C)cc2S1 | >11 | i
CCC(c1nnnn1C1CCCCC1)N(Cc1ccco1)Cc1cc2ccc(OC)cc2[nH]c1=O (centres undefined) | >57 | i
N#CCSc1nc2c(c(C3CC=CCC3)c1C#N)CCC2 (centres undefined) | >57 | i
CCOC(=O)N1CCN(C(=O)c2cn(C)c3ccc(S(=O)(=O)N4CCCC4)cc3c2=O)CC1 | >57 | i
COc1ccc(NC(=O)C2(N(CC(C)C)C(=O)Cn3nnnc3N)CCCCC2)cc1 | >57 | i
CCOC(=O)CCCOC(=O)c1ccc(S(=O)(=O)N(C)C)cc1 | >57 | i
O=C(Nc1ccc2c(c1)OCO2)C1CCCN(S(=O)(=O)c2cccs2)C1 (centres undefined) | >57 | i
COC(=O)c1ccccc1NS(=O)(=O)c1ccc2c3c(cccc13)C(=O)N2 | >57 | i
CCNc1ncc2nc(-c3cc(F)cc(F)c3)c(=O)n(-c3ccccc3)c2n1 | . | i
COC(=O)c1ccc(NC(=O)CSc2nnc(C)n2-c2ccccc2)cc1 | >57 | i

Molecule | PK Bst | YjeE inh
CCN1C(=O)CS/C1=C(\C#N)S(=O)(=O)c1ccccc1 | >57 | i
Cc1nnc(SCc2cc(=O)[nH]c(N3CCCCC3)n2)s1 | >57 | i
Cc1cccc(N/C(N)=N/c2nc3c(c(=O)[nH]2)CCCC3)c1 | >57 | i
COc1ccc(C(c2nnnn2CCc2ccccc2)N2CCN(C3CCCC3)CC2)cc1 (centres undefined) | >57 | i
COc1ccc(C2C(C#N)=C(N)OC3=C2C(=O)CC(C)(C)C3)c(OC)c1OC (centres undefined) | . | i
FC(F)(F)c1ccc(N2CCOCC2)c(Nc2nc3ccccc3n3cnnc23)c1 | . | i
CCCOc1ccc(/C(O)=C2/C(=O)C(=O)N(CCN(CC)CC)C2c2ccncc2)cc1 (centres undefined) | >57 | i
CC1(C)CC(=O)C=C(NCCc2ccc(S(N)(=O)=O)cc2)C1 | . | i
COc1ccc(C(C)=O)c2c1OCCO2 | >57 | i
COc1cccc(C(=O)Nc2ccc(C)cc2)c1 | ? | i
COc1ccc(-n2c(SCC(=O)Nc3ccc(C(=O)O)cc3)nnc2-c2cccs2)cc1 | >57 | i
O=C(NS(=O)(=O)c1ccccc1Cl)c1ccc[nH]1 | >57 | i

Molecule | PK Bst | YjeE inh
Cn1c(N2CCN(C(=O)NCc3ccccc3)CC2)nc2ccccc21 | >57 | i
O=C(CCCN1C(=O)CSc2ncccc21)N1CCN(Cc2ccccc2)CC1 | . | i
CCOc1ccc(C2CC(c3ccc(OC)c(OC)c3)n3nc(N)nc3N2)cc1 (centres undefined) | . | i
CC(C)c1nc(=S)c2ccccc2[nH]1 | >57 | i
CC(=O)N1CC2(C)CN(C(C)=O)CC(C)(C1)C2=O | . | i
Cc1ccc(S(=O)(=O)NC(C(=O)OCC(=O)NC2CCS(=O)(=O)C2)C(C)C)cc1 (centres undefined) | >57 | i
Cc1c(-c2ccc(F)cc2)nc(N)c(C#N)c1-c1ccco1 | >57 | i
CCOC(=O)C1CCN(C(=O)c2oc3ccc(S(=O)(=O)N4CCCCCC4)cc3c2C)CC1 | >57 | i
Cc1c(NC(=O)c2cc(-c3ccccc3)on2)c(=O)n(-c2ccccc2)n1C | >57 | i
O=C(CC1NC2CCCCC2NC1=O)Nc1cccc(C(F)(F)F)c1 (centres undefined) | >57 | i
O=C(CSc1nc2ccccc2o1)N1CCN(c2ccccc2)CC1 | >57 | i
COc1cccc(-c2nnc(SCC(=O)Nc3ccc(OC)c(OC)c3)n2N)c1 | >57 | i

Molecule | PK Bst | YjeE inh
CCc1cc2c(=O)c(Oc3ccccc3)c(C)oc2cc1O | . | i
O=CN[C@@H](Cc1cnc[nH]1)C(=O)O | . | i
Cc1ccc2c(c1)N(CCCC(=O)NCc1cccnc1)C(=O)CO2 | . | i
Cc1ccc2cc(CCNC(=O)C(C)(C)C)c(=O)[nH]c2c1 | . | i
O=C(NC1CCCCC1)N1CCC(c2nc(-c3ccc(S(=O)(=O)N4CCCC4)cc3)no2)CC1 | >57 | i
COC(=O)c1ccccc1NC(=O)c1ccc2c(c1)C(=O)N(Cc1ccco1)C2=O | >57 | i
O=C(c1ccncc1)N1CCC[C@@]2(CCN(c3ccncc3)C2)C1 | . | i
CC1CCN(C(=O)CSc2nnc(CN3CCOCC3)n2-c2ccccc2)CC1 | >57 | i
CCSC1=C(C#N)C2(CCCC2)C(C#N)=C(N)N1 | . | i
O=S(=O)(c1ccccc1)N1CCN(c2cc(-c3ccccc3)nc3ncnn23)CC1 | >57 | i
Cc1ccc2c(nc3s/c(=C/c4cccs4)c(=O)n32)c1C | . | i
Cn1c(=O)c2[nH]c(COCc3nc4c([nH]3)c(=O)n(C)c(=O)n4C)nc2n(C)c1=O | . | i

Molecule | PK Bst | YjeE inh
O=C(CN(Cc1ccco1)C(=O)CNS(=O)(=O)c1ccccc1)NCc1ccc(F)cc1 | >57 | i
c1ccc(CN2CCN(c3ncnc4nc[nH]c34)CC2)cc1 | . | i
Cc1cc(=O)oc2cc(OCC(=O)OCC(=O)NCc3ccc4c(c3)OCO4)ccc12 | >57 | i
CC(=O)C1=C(C)Nc2cc(C(F)(F)F)ccc2S1 | . | i
O=C(NCCOc1ccc(Cl)cc1)C1CC(=O)N(c2ccc(F)cc2)C1 (centres undefined) | . | i
CCOc1ccc(NC(=O)c2cnsn2)cc1 | ? | i
Cn1cccc1C(=O)Nc1nccs1 | i | i
CCOC(=O)c1cn(CC)c2ccc(Br)cc2c1=O | . | i
CCNc1ncc2nc(CCc3ccccc3)c(=O)n(Cc3ccc(F)cc3)c2n1 | . | i
C=CCn1c(N)c(C(=O)NCC2CCCO2)c2nc3ccccc3nc21 (centres undefined) | >57 | i
COc1ccc(OCC(O)Cn2c(Br)nc3c2c(=O)[nH]c(=O)n3C)cc1 (centres undefined) | >57 | i
COc1ccc(NC(=O)C2CC(=O)N(c3cccc(C)c3C)C2)cc1 (centres undefined) | >57 | i

Molecule | PK Bst | YjeE inh
CN(C)c1ccc(P(=O)(OCc2ccccc2)C(O)c2cccnc2)cc1 (centres undefined) | >57 | i
COC(=O)c1sc(NC(=O)c2ccoc2C)nc1C | >57 | i
CC(C)(Oc1ccc(-c2cccc3ccccc23)cc1)C(=O)O | . | i
Cc1nnc(NC(=O)Nc2cccc(Cl)c2)s1 | >57 | i
COC(=O)c1cn(C(=O)OC)c2ccccc12 | >57 | i
Cc1nn(C(=O)c2cccnc2)c(C)c1C | >57 | i
CCCCn1c(=O)c(C(=O)OCC)c(O)c2ccccc21 | >57 | i
Cc1ccc(C)n1NC(=O)c1ccccc1Cl | >57 | i
COc1ccc(-n2c(Cc3cc(=O)[nH]c(=O)[nH]3)nnc2SCc2ccccc2)cc1 | . | i
CCOC(=O)CSc1n[nH]c(-c2ccco2)n1 | . | i
Cc1onc(-c2c(F)cccc2Cl)c1C(=O)Nc1nnc(C2CC2)s1 | >57 | i
O=C(NCc1ccccc1Cl)C1CCCN(S(=O)(=O)c2cnc[nH]2)C1 (centres undefined) | . | i

Molecule | PK Bst | YjeE inh
Cc1ccccc1-c1nc(-n2ccnc2)c2ccccc2n1 | . | i
COCCn1c(=O)[nH]c2cc(C(=O)NCC3CCCO3)ccc2c1=O (centres undefined) | >57 | i
CCCCOc1ccc(CN2CCC(O)CC2)cc1 | . | i
CCN(CC)S(=O)(=O)c1ccccc1/C=N\O | >57 | i
O=C(CN1C(=O)COc2ccccc21)N1CCN(c2ccccc2F)CC1 | >57 | i
O=C(Nc1cccnc1)c1cccc(S(=O)(=O)N2CCOCC2)c1 | >57 | i
CC(=O)C1=C(C)NC(SCC(=O)c2ccc(F)cc2)=C(C#N)C1c1ccco1 (centres undefined) | . | i
Cc1cc(NC(=O)CSc2ccc3c(c2)OCCO3)no1 | >57 | i
COc1cc2cc(CN(C(=O)Nc3ccccc3)C3CCCC3)c(=O)[nH]c2cc1OC | >57 | i
CCOc1ccc(NC(=O)N2CC=C(n3c(=O)[nH]c4ccccc43)CC2)cc1 | >57 | i
O=C1C=CCCC1 | . | i
CCOc1ccc(C2CC(c3ccc(Br)cc3)Nc3nc(N)nn32)cc1 (centres undefined) | >57 | i

Molecule | PK Bst | YjeE inh
CCOc1nc(C)ccc1-c1noc(-c2ccncc2)n1 | . | i
O=C(CN1CCOc2ccccc21)NCc1ccco1 | . | i
CC(C)n1c(SCC(=O)Nc2ccccc2N2CCCCC2)nc2c1c(=O)n(C)c(=O)n2C | >57 | i
Cc1cc(C)n(Cc2ccccc2Cl)n1 | >57 | i
COCCn1c(C(=O)N(C)C)cc2c1C[C@H]1CN(C(=O)c3ccccc3)[C@@](Cc3ccc(F)cc3)(C(=O)OC)[C@@H]21 | . | i
Cc1cc(-n2c(=O)c(C#N)cc3c(=O)n4cccc(C)c4nc32)no1 | >57 | i
CCC(Sc1nc(=O)cc(N)n1-c1ccccc1)C(=O)Nc1cc(C)on1 (centres undefined) | . | i
COC(=O)c1ccccc1NC(=O)N1CCN(C/C=C/c2ccccc2)CC1 | >57 | i
COc1ccc(C2CC(O)(C(C)(C)O)NO2)cc1 (centres undefined) | >57 | i
COc1ccc(C2(O)CCN(CCCCOc3ccccc3)CC2)cc1 | >57 | i
O=C(Cc1cccs1)NCc1cccs1 | >57 | i
COc1ccccc1CN1CCC2(CC1)CCN(C(=O)c1csnn1)CC2 | . | i

Molecule | PK Bst | YjeE inh
COCCNC(=O)CN1C(=O)COc2ccc(Cl)cc21 | . | i
OCCN1CCN(c2ncnc3ccc(Br)cc23)CC1 | . | i
CC1=C(C(=O)OCc2ccccc2)C(c2ccc(C3CCCCC3)cc2)NC(=O)N1CCCCCC(=O)O (centres undefined) | . | i
CCn1c(COc2ccccc2C)nnc1SCC(=O)CC(=O)Nc1ccccc1 | >57 | i
CCc1nnc(NC(=O)CSc2nnc(-c3ccccc3OC)n2-c2ccccc2)s1 | >57 | i
O=C(CSCCO)Nc1cccc2ccccc12 | ? | i
CC(C)OC(=O)CC(=O)CSc1nc2c(cc1C#N)CCCC2 | i | i
Oc1ccccc1Oc1ncc(Br)c(N2CCOCC2)n1 | >57 | i
CCc1nc(NCC2CCCN2CC)c2nnn(Cc3ccccc3F)c2n1 (centres undefined) | >57 | i
O=C(O)COc1ccccc1C1C2C(=O)N(c3ccc(F)cc3)C(=O)C2ON1c1ccccc1 (centres undefined) | >57 | i
COc1cccc(Cn2c(=O)c(CCc3ccccc3)nc3cnc(N(C)C)nc32)c1 | . | i
CC(=O)N(CCP(=O)(c1ccccc1)c1ccccc1)Cc1ccco1 | . | i

Molecule | PK Bst | YjeE inh
CC(=O)Nc1cc(C(=O)N2CCOCC2)ccc1S(=O)(=O)c1ccc(C)cc1 | >57 | i
Cc1ccnc2ccc(-c3nc4ccccc4o3)cc12 | ? | i
CCOC(=O)c1ccc(NC(=O)Nc2ccc3c4c(cccc24)C(=O)N3CC)cc1 | >57 | i
COc1cc(C(=O)Nc2ccc(-n3cnnn3)c(C)c2)cc(OC)c1OC | >57 | i
COC(=O)C1=C(C)N(C)C(C)=C(C(=O)OC)C1c1ccc(F)c(Br)c1 | . | i
O=C(CCSCCc1ccccn1)Nc1ccccn1 | >57 | i
CCCC(=O)Nc1ccc2oc(-c3ccc(OC)c(Br)c3)nc2c1 | . | i
Cc1ccc(N2C(=O)c3oc4ccccc4c(=O)c3C2c2cccnc2)nc1 (centres undefined) | . | i
CN(C)S(=O)(=O)c1cccc(C(=O)OCC(=O)N2c3ccccc3NC(=O)C2(C)C)c1 | >57 | i
O=C(Nc1ccc(F)cc1)c1oc2ccccc2c1NC(=O)C1CCCC1 | >57 | i
CN(CC(=O)NC1CCCCC1)S(=O)(=O)c1ccc(Cl)cc1 | >57 | i
